# Screens: PubChem, several laboratories
# Proteasome disasm: inhibitors of ATP-driven 26S proteasome dissociation, primary screen, biochemical, bead-based flow cytometry, GFP-tagged proteasome; anti-FLAG beads, GFP-proteasome disassembly; inhibition of disassembly, % (test concentration not listed); 0.2% of 24,000 active;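 active = above 40%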;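 also: plate controls were ATP control with full disassembly for no effect and ATP-gamma-S intact proteasomes for full effect; higher percent means more bead fluorescence retained so stronger block of disassembly; stock transfer was 100 nL into about 10 µL; wells with too few beads may also be inconclusive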
# VCAM-1 rise: enhancers of VCAM-1 display on endothelial cells, cell-based, plate reader, pooled HUVEC, TNFa stimulus (AID 455) | HUVEC TNFa-induced VCAM-1 immunofluorescence, plate reader; numbers were filed only for top-ranked candidate wells | augmentation, % at 5 µM | 0.2% of 10,000 active;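 active = a compound raising TNF-alpha-driven VCAM-1 surface staining, with its hit status upheld on visual or statistical review; inactive = the rest, including hits rejected on review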;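 also: 0% = TNFa with vehicle and 100% = strongest image-checked hit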
# * marks the source's active call; other numbers are inactive results; i = inactive; / = not tested or not shown. This is a subset; rates above refer to the full screens.
Proteasome disasm | VCAM-1 rise | SMILES
0.4 | i | CC1CCCC(C(=O)OCc2ccccc2)N1 (stereo unspecified)
0.6 | i | Cc1ccc(Cn2ccc(NC(=O)c3cc(-c4cccs4)on3)n2)cc1
-2.1 | / | O=c1c2cc(N3CCOCC3)ccc2[nH]c(=S)n1CCN1CCCC1
0.3 | / | CCOc1ccc(C(=O)Nc2c(C(N)=O)oc3ccccc23)cc1
-0.1 | i | COc1ccc(-c2cc(C(=O)NCCc3ccccc3)no2)cc1OC
1.1 | / | CCN(CC)S(=O)(=O)c1ccc2oc(C(=O)N3CCCCCC3)c(C)c2c1
-0.3 | i | COc1cccc(-n2c(C)nc3c(cnn3-c3ccc(Cl)cc3)c2=O)c1
0.1 | i | Cc1ccc(C(C)C)c(OCCn2c(=O)oc3ccccc32)c1
-2.5 | / | CC1C=CCC2C(=O)N(c3cccc(C(=O)N4CCN(c5ccc(F)cc5)CC4)c3)C(=O)C12 (stereo unspecified)
1.7 | i | Cc1ccc(C)c(S(=O)(=O)C(C#N)c2nc3ccccc3nc2N2CC(C)OC(C)C2)c1 (stereo unspecified)
-3.7 | / | CCOC(=O)C1CCN(C(C(=O)Nc2ccc3c(c2)OCCO3)c2ccccc2)CC1 (stereo unspecified)
-1.0 | / | COc1cccc(C2C(C(=O)OC(C)C)=C(C)Nc3ncnn32)c1 (stereo unspecified)
-2.6 | i | CCN(CC)c1ccc(NC(=O)c2cncc(Br)c2)cc1
0.4 | / | CCOc1ccc(C2C(C(=O)O)c3ccccc3C(=O)N2CCN2CCOCC2)cc1 (stereo unspecified)
2.0 | i | Cn1c(=O)c2c(nc(CN3CCCCC3)n2CCc2ccccc2)n(C)c1=O
-1.8 | / | CC(NS(C)(=O)=O)C(c1cccs1)N1CCN(C)CC1 (stereo unspecified)
-0.5 | i | CC(C)(C)N(Cc1cc2ccccc2[nH]c1=O)C(=O)C1CCCCC1
0.0 | i | c1ccc(-c2cc(-c3nc(-c4ccccn4)no3)c3ccccc3n2)cc1
-0.1 | / | CCOC(=O)c1c(C)oc2c1cc(O)c1ccccc12
0.0 | / | COc1ccc(Cc2n[nH]c(=O)c3ccccc23)cc1OC
0.3 | i | CCCc1cc(=O)[nH]c(SCc2ccccc2)n1
-0.5 | i | CCCOC(=O)CSc1nc(N)c(C#N)c(CC)c1C#N
-1.0 | / | C=CCOC(=O)C1C(=O)CC(C)(O)C(C(=O)OCC=C)C1c1ccc(OCC)cc1 (stereo unspecified)
-0.2 | / | CCOC(=O)N1CCC(NS(=O)(=O)c2ccc3c(c2)CCN3C(C)=O)CC1
-0.1 | / | COCCCNC(=O)C1CC(=O)N(Cc2ccc(OC)cc2)C1 (stereo unspecified)
1.0 | i | O=C(CN(C1CCCCC1)S(=O)(=O)c1ccccc1)NCc1cccnc1
1.0 | i | O=c1c2ccccc2nc(SCc2nnc(-c3ccccc3Br)o2)n1-c1ccccc1
0.3 | i | COc1ccc(CNC(=O)c2ccc(CN3CCOCC3)cc2)cc1
-0.6 | / | CC(=O)N1CCc2cc(S(=O)(=O)NCCC(=O)NC3CCN(Cc4ccccc4)CC3)ccc21
0.0 | i | CCCn1c2c(c(O)c(C(=O)Nc3ccc(C)cn3)c1=O)CCCC2
-1.7 | / | O=C(NC1CCCCCC1)C1CCCN(S(=O)(=O)c2cnc[nH]2)C1 (stereo unspecified)
0.9 | i | O=C(NCc1ccc2c(c1)OCO2)C1CCC(CNS(=O)(=O)c2ccccc2)CC1 (stereo unspecified)
0.8 | i | CC(NC(=O)c1ccc(F)cc1)C(c1cccs1)N1CCN(C)CC1 (stereo unspecified)
3.4 | i | CC(=O)c1cccc(NC(=O)CCOc2ccccc2)c1
-0.1 | i | Cn1cnnc1SCC(=O)NCc1cccc(C(F)(F)F)c1
-0.1 | / | CSc1nc2c(c(=O)[nH]1)C(c1ccncc1)C(C(=O)OC(C)C)=C(C)N2 (stereo unspecified)
-0.1 | / | CC(C)NC(=O)C1CC(=O)N(c2ccc(F)c(Cl)c2)C1 (stereo unspecified)
0.6 | i | CC(C)CCNc1cc(=O)n(C)c(=O)n1C
-1.9 | i | C=CCSc1nnc(NC(=O)c2ccc(S(=O)(=O)NCC3CCCO3)cc2)s1 (stereo unspecified)
-2.5 | / | O=C(Cc1c(C(=O)O)[nH]c2ccccc12)Nc1ccc2c(c1)OCO2
0.6 | i | CCN(CC)C(=O)CSc1nc2ccccc2c(=O)n1CCC(=O)NCc1ccc(F)cc1
-1.3 | i | Cn1c(=O)c2c(nc(-n3ccnc3)n2C)n(C)c1=O
-0.5 | / | COc1ccccc1NC(=O)C1=C(C)Nc2nnnn2C1c1cccc(C)c1 (stereo unspecified)
0.9 | / | O=C(NCCN1CCOCC1)c1nn2c(c1Cl)NC(c1ccccc1)CC2C(F)(F)F (stereo unspecified)
-0.8 | / | Cc1cc(N2CCN(c3ccccc3F)CC2)nc2cc(O)ccc12
-1.9 | i | CCOC(=O)c1[nH]c(=O)c2ccccc2c1O
0.1 | / | O=C(CCCn1c(=O)[nH]c2cc(Cl)ccc2c1=O)NCC1CCCO1 (stereo unspecified)
1.5 | i | CCSc1oc(-c2cccs2)nc1S(=O)(=O)c1ccccc1
0.4 | i | O=C(NCCN1CCOCC1)c1ccc2c(c1)N(Cc1ccccc1)C(=O)CS2
1.0 | i | CCOC(=O)c1ccccc1NC(=O)CSc1nc2c(c(=O)n(C)c(=O)n2C)n1C
-0.1 | i | Cn1c(=O)c2c(nc(SCCCC#N)n2Cc2c(F)cccc2Cl)n(C)c1=O
-3.5 | / | Cn1c2c(c(=O)n(C)c1=O)C(c1ccccc1OC(F)F)C1=C(CCCC1=O)N2 (stereo unspecified)
0.2 | / | CCc1c(O)nc(SCC(=O)Nc2ccc(OC)cc2)n(C2CCCCC2)c1=O
0.4 | / | CCNc1nc(Oc2ccc(C(=O)OC)cc2)nc(N(C)C)n1
1.3 | i | CCOc1ccccc1C(=O)NCC(=O)OCC(=O)N1C(C)CCCC1C (stereo unspecified)
4.2 | i | O=C(Nc1nnc(C2CCCC2)s1)C1CCN(S(=O)(=O)c2ccc(Cl)cc2)CC1
-0.2 | i | Cc1ccc2oc(-c3ccccc3C(=O)O)cc(=O)c2c1
-1.2 | / | COCCNC(=O)c1cc(-c2ccccc2OC)on1
-0.6 | i | CCc1nnc(NC(=O)c2ccc(S(=O)(=O)NCC(C)C)cc2)s1
0.2 | / | O=c1cc(CO)oc(C(Nc2ccccn2)c2ccc(C(F)(F)F)cc2)c1O (stereo unspecified)

# (next part)
Proteasome disasm | VCAM-1 rise | SMILES
2.2 | i | CC1(C)COCN1S(=O)(=O)c1ccc(C(=O)Nc2nnc(-c3ccc(Cl)s3)o2)cc1
-1.9 | i | COc1ccc(C2C(C(=O)NCCN3CCOCC3)c3ccccc3C(=O)N2C2CCCCC2)cc1 (stereo unspecified)
-0.2 | i | CCn1c(Cc2ccccc2)nnc1SCC(=O)Nc1ccc(N2CCOCC2)c(Cl)c1
-1.3 | i | Cc1[nH]n2c(=O)cc(Cc3ccccc3)nc2c1C#N
1.2 | i | COc1cccc(CN=CC2=C(O)CC(C)(C)CC2=O)c1OC
-1.8 | / | CCOC(=O)N1CCC(N2Cc3cccc(C(=O)NCc4ccccc4OC)c3C2=O)CC1
4.8 | / | O=C1CN(C(=O)c2ccco2)C(c2ccccc2)c2cc(Cl)ccc2N1 (stereo unspecified)
-1.5 | / | CN(C)c1ccc(NC(=O)Cn2c(=O)n(Cc3ccccc3)c(=O)c3ccccc32)cc1
0.1 | / | Cc1cc(NC(=O)c2noc3c2CCCCC3)no1
3.8 | / | CCOC(=O)C(NS(=O)(=O)c1ccc(Br)cc1)C(C)C (stereo unspecified)
-0.3 | / | Cc1nc2nc(C)c(CCC(=O)NCCC3=CCCCC3)c(C)n2n1
-0.3 | / | Cc1cc(=O)n(-c2ccc(O)cc2)[nH]1
1.8 | / | CCOC(=O)N1CCN(C(=O)CCc2nc3sc4c(c3c(=O)[nH]2)CCCC4)CC1
1.6 | i | CCn1c(C)cc(=S)c2ccccc21
-0.4 | i | CCOC(=O)CSc1nc2cccnc2n1-c1ccc(F)cc1
-0.4 | i | COCCNC(=O)c1ccc(CS(=O)(=O)c2c(Cl)cccc2Cl)o1
14.8 | / | N#CCSc1nc2ccc(N3CCCCC3)cc2c(=O)n1Cc1ccccc1
-0.3 | i | C/C=C/COC(=O)c1[nH]c2c(c1C)C(=O)CC(c1ccco1)C2 (stereo unspecified)
-3.4 | / | COc1ccc(-n2nnc3c(=O)n(CC(=O)N4CCCC4)cnc32)cc1
-0.9 | / | COc1ccc(CNC(=O)C2CSC(=O)C2)cc1 (stereo unspecified)
0.3 | / | Cc1ccc(CCNC(=O)CCNS(=O)(=O)c2ccc3c(c2)oc(=O)n3C)cc1
0.8 | / | CC(NC(=O)c1cccnc1)C(=O)N1CCCCC1 (stereo unspecified)
-2.3 | / | CCOC(=O)N1CCC(NC(=O)c2cc(C(=O)Nc3ccc(OCC)cc3)ccc2CO)CC1
1.7 | / | COCC(=O)NCc1nc2ccccc2[nH]1
0.7 | / | Cn1c(C(=O)NCCCN2CCCC2=O)cc2c(=O)n3ccccc3nc21
-0.5 | i | c1ccc(Cn2nnc3c(N4CCC5(CC4)OCCO5)ncnc32)cc1
0.3 | / | O=C(Nc1ccc(Cl)cn1)Nc1cccs1
-0.2 | / | CN1c2ccccc2C(C)(C)C12CCCC(=O)N2 (stereo unspecified)
-2.0 | i | C=CCN(CC=C)C(=O)CN1C(=O)c2ccccc2C1=O
3.5 | i | O=C(O)CCc1ccc(-c2cccs2)o1

# Copied from the listing for reference:
Proteasome disasm | VCAM-1 rise | SMILES
-0.2 | i | CCn1c(Cc2ccccc2)nnc1SCC(=O)Nc1ccc(N2CCOCC2)c(Cl)c1
-1.3 | i | Cc1[nH]n2c(=O)cc(Cc3ccccc3)nc2c1C#N
1.2 | i | COc1cccc(CN=CC2=C(O)CC(C)(C)CC2=O)c1OC
-1.8 | / | CCOC(=O)N1CCC(N2Cc3cccc(C(=O)NCc4ccccc4OC)c3C2=O)CC1
4.8 | / | O=C1CN(C(=O)c2ccco2)C(c2ccccc2)c2cc(Cl)ccc2N1 (stereo unspecified)
-1.5 | / | CN(C)c1ccc(NC(=O)Cn2c(=O)n(Cc3ccccc3)c(=O)c3ccccc32)cc1
0.1 | / | Cc1cc(NC(=O)c2noc3c2CCCCC3)no1
3.8 | / | CCOC(=O)C(NS(=O)(=O)c1ccc(Br)cc1)C(C)C (stereo unspecified)
-0.3 | / | Cc1nc2nc(C)c(CCC(=O)NCCC3=CCCCC3)c(C)n2n1
-0.3 | / | Cc1cc(=O)n(-c2ccc(O)cc2)[nH]1
1.8 | / | CCOC(=O)N1CCN(C(=O)CCc2nc3sc4c(c3c(=O)[nH]2)CCCC4)CC1
1.6 | i | CCn1c(C)cc(=S)c2ccccc21
-0.4 | i | CCOC(=O)CSc1nc2cccnc2n1-c1ccc(F)cc1
-0.4 | i | COCCNC(=O)c1ccc(CS(=O)(=O)c2c(Cl)cccc2Cl)o1

# (further entries)
Proteasome disasm | VCAM-1 rise | SMILES
0.0 | / | CC1CCN(CCNC(=O)c2ccc(NC(=O)C3CCCO3)cc2)CC1 (stereo unspecified)
12.4 | i | O=C(CSc1nc2ccccc2o1)NC(=O)NCc1ccco1
0.0 | i | CNC(=O)OC(C)CNS(=O)(=O)c1ccc(C)cc1 (stereo unspecified)
-2.3 | / | COc1ccc(C2C3=C(CCCC3=O)Nc3nc4ccccc4n32)c(OC)c1OC (stereo unspecified)
-0.6 | i | Cc1c(NC(=O)CN2c3cccc4cccc(c34)S2(=O)=O)c(=O)n(-c2ccccc2)n1C
19.9 | / | Cc1oc(-c2ccc(Cl)cc2)nc1CN1CCCC(C(=O)N2CCN(C(=O)c3ccco3)CC2)C1 (stereo unspecified)
1.8 | i | CCOc1ccccc1Nc1nc2ccccc2[nH]1
-3.6 | i | O=C(NC12CC3CC(CC(C3)C1)C2)c1cncc(O)c1
0.5 | / | Cn1c(=O)cc(OCCCC(=O)NCCCN2CCN(Cc3ccccc3)CC2)c2ccccc21
0.8 | / | CN1CCN(CC(O)COc2ccc(OCC(O)CN3CCN(C)CC3)cc2)CC1 (stereo unspecified)
0.4 | / | CCOC(=O)CCc1c(C)n(CC)c2cc(-c3ccccc3OC)nn2c1=O
-1.2 | / | c1cn2cc(-c3ccc4c(c3)OCO4)nc2s1
-1.5 | / | NC(=O)C1CCN(C(=O)CCCCCn2c(=O)[nH]c3ccsc3c2=O)CC1
-2.0 | i | CCOC(=O)c1sc2nc(SCC#N)n(CCCN3CCCC3=O)c(=O)c2c1C
-1.5 | i | Cc1ccc2nc(-c3ccc4c(c3)OCCO4)cc(C(=O)O)c2c1
0.8 | i | COc1ccc(N2CCN(C(=O)CSc3nnc4n3C(C)(C)Cc3ccccc3-4)CC2)cc1
-1.1 | / | Cc1ccc(S(=O)(=O)C2(C(=O)Nc3cccc(F)c3)CC2)cc1
-1.6 | / | COC(=O)C(C)n1cnc2c(nnn2Cc2ccc(Cl)cc2)c1=O (stereo unspecified)
1.9 | i | O=C(Nc1nccs1)c1ccc(COc2ccccc2Br)o1
-1.2 | i | CC(=O)OCC(=O)[C@@]12OC3(CCCC3)O[C@@H]1C[C@H]1[C@@H]3CCC4=CC(=O)C=C[C@]4(C)[C@@]3(F)[C@@H](O)C[C@@]12C
-1.6 | / | COc1cccc(OCC(O)CN2C(C)CCCC2C)c1 (stereo unspecified)
4.0 | i | CCOCCCNC(=O)C1CCN(S(=O)(=O)c2c(C)noc2/C=C\c2ccc(OC)cc2)CC1
-1.6 | i | CN1CCN(CC#CCC(O)(c2ccccc2)C2CCCC2)CC1 (stereo unspecified)
0.8 | / | CCCCCCNS(=O)(=O)c1ccc(OC)c(OC)c1
10.1 | i | CCOc1ccc(C(=O)N2CCC(C(=O)c3ccc4c(c3)OCCO4)CC2)cc1
0.1 | / | COc1cc(OC)nc(NC(=O)C(C)C)n1
-2.3 | i | CCN(CC)CCN1C(=O)C(O)=C(C(=O)c2cccs2)C1c1ccccn1 (stereo unspecified)
